# Env fusion inh: HIV envelope-mediated fusion inhibition; HeLa-JRFL Env/CEM21 cell fusion, luciferase; inhibition, % at 12.3 µM; hit rate 1.1% among 360,000;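 active = mean replicate inhibition score of at least 50 and every replicate individually at or above 50; inconclusive = only one of the two criteria met; inactive = mean below 50 and not all replicates reaching 50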;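 also: 0% = plate neutral controls and 100% = maraviroc near 300 nM; one replicate is shown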
# CSC inhib: cancer stem cell inhibition. inhibition, % at 7.5 µM. cancer stem cell-like cells viability, luminescence. hit rate 1.1% among 300,000;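 active = mean at 75% or more and at least half the replicates too; inconclusive = mean and replicates disagree; tested in HMLE shEcad cells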;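 also: 0% = median of negative and 100% = median of positive control wells; the first replicate is given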
# Rce1 inhib: blocks yeast Ras-converting enzyme | Q03530 | yeast membranes, quenched prenylated peptide cleavage fluorescence | calls only | hit rate 0.27% among 290,000 | AID 2563;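 active = fall in fluorescence gain of 50% or more versus controls, with final raw signal at or below 3038400; inconclusive = same 50% fall but final raw signal above 3038400; inactive = fall in fluorescence gain under 50%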;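 also: plate controls were neutral control wells for no effect and wells lacking membranes for full effect; tested at 10 µM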
# PABP polyA inh: blocks human PABP binding to poly(A) RNA; fluorescence polarization; inhibition, % at 35 µM; hit rate 1% among 290,000;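 active = 50% or more with normal probe brightness, or confirmed in later tests; inconclusive = above 50% with abnormal brightness, or retests that disagree; inactive = below 50% or failed in later tests; about a fifth of its hits are not listed in these tables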;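 also: calls also rest on retests at 20 µM and on dose response follow-up; controls were probe without protein and protein plus probe with vehicle; some compounds called inactive have numbers as strong as hits; many hits fall short of the cut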
# Target sequence (P11940 whole entry, looked up): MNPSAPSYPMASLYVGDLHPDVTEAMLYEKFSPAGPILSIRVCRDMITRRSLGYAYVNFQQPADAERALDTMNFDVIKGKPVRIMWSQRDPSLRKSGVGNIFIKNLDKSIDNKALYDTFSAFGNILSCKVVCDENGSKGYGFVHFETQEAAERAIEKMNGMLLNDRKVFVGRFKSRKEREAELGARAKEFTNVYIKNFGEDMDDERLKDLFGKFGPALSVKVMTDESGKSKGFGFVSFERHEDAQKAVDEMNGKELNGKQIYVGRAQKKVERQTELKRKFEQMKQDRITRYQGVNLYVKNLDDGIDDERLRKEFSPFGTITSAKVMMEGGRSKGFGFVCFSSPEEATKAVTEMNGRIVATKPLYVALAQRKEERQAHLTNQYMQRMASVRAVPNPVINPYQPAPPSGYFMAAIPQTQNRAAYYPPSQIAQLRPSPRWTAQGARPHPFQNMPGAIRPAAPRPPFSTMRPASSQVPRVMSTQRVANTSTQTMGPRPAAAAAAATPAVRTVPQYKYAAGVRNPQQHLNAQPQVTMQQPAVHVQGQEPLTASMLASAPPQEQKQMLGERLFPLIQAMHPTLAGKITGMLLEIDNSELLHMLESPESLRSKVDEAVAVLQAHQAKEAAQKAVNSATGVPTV
# MT1-MMP act inh: inhibitors of human MT1-MMP activation. HT1080 RFP-PRO-GFP cells, GFP/RFP ratio fluorescence, overnight; percent of plate control window, DMSO zero. GFP/RFP ratio change, % at 20 µM. hit rate 0.061% among 360,000. AID 651647;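 active = GFP/RFP ratio change of at least 30% with cell ATP level not reduced by more than half and red fluorescence within 50% of control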; also: strong numbers were not always called active
#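 Test system: HT1080 cells expressing an RFP-PRO-GFP fluorescent reporter construct / Compound dosing: single-point 20 µM compound, 1% DMSO / Schedule: cells overnight before dosing, compound overnight, 37 °C, 5% CO2 / Evaluation: GFP/RFP fluorescence ratio / Control set: DMSO and RFP-L50D-GFP cell wells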
# UUG fidelity: yeast start codon fidelity modulation | activity score, % at 18.7 µM | AID 602363 | S. cerevisiae UUG-firefly luciferase reporter, luminescence/redox ratio | hit rate 0.13% among 350,000;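 active = replicate mean at a twofold rise or more, about +100% in these data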;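 also: firefly luciferase made from a UUG start codon reports start codon fidelity; reporter light over untreated wells divided by growth signal over untreated wells; some hits fall short of that in this replicate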
# eIF4H FP inh: inhibitors of RNA binding by human eIF4H | Q15056 | eIF4H fluorescence polarization binding assay | inhibition, % at 35 µM | hit rate 0.94% among 290,000 | AID 2012;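 active = 50% or more with normal probe brightness, or confirmed in later tests; inconclusive = above 50% with abnormal brightness, or retests that disagree; inactive = below 50% or failed in later tests; about a fifth of its hits are not listed in these tables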;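 also: calls also rest on retests at 20 µM and on dose response follow-up; 0% = protein and probe with vehicle and 100% = probe without protein; strong numbers were not always called active; many hits fall short of the cut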
# MT1-MMP act inh RFP: also measured in MT1-MMP act inh; calls as there; RFP signal change, %; measured here: RFP expression control read;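 0 = vehicle wells; hits needed this value within 50% of zero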
# * = called active by the depositor; i = inactive; ? = inconclusive; · = not tested or not shown; + = active, no number. Only part of the results is shown; rates above refer to the full screens.
# Sample of the layout:
SMILES,Env fusion inh,CSC inhib,Rce1 inhib,PABP polyA inh,MT1-MMP act inh,MT1-MMP act inh RFP,UUG fidelity,eIF4H FP inh
CCOCCn1c(CN2CCN(C)CC2)nc2c1c(=O)n(C)c(=O)n2C,-53,-16,i,-1,4,5,-2,-2
CCCCCCSc1nsc(NC(C)=O)n1,·,-4,i,5,0,-6,-10,-9
COc1ccc(C(CNC(=O)COc2ccccc2C)N2CCOCC2)cc1 (configuration not stated),9,0,i,·,-3,-4,11,·

# The whole of this part, from the start:
SMILES,Env fusion inh,CSC inhib,Rce1 inhib,PABP polyA inh,MT1-MMP act inh,MT1-MMP act inh RFP,UUG fidelity,eIF4H FP inh
CCOCCn1c(CN2CCN(C)CC2)nc2c1c(=O)n(C)c(=O)n2C,-53,-16,i,-1,4,5,-2,-2
CCCCCCSc1nsc(NC(C)=O)n1,·,-4,i,5,0,-6,-10,-9
COc1ccc(C(CNC(=O)COc2ccccc2C)N2CCOCC2)cc1 (configuration not stated),9,0,i,·,-3,-4,11,·
CCCCCN=CC1=C(O)CC(c2ccccc2)CC1=O (configuration not stated),-1,·,i,-5,1,4,·,9
CCC1=CC(c2ccccc2)n2ncnc2N1 (configuration not stated),3,-6,i,·,0,3,-12,·
c1ccc(CCNCCOc2ccccc2)cc1,-3,-8,i,0,5,1,-17,9
COc1cc2c(cc1O)C(Cc1ccc(O)cc1)NCC2 (configuration not stated),-8,-6,i,-3,10,10,-13,26
NC(=O)C1CCN(C(=O)C2CCN(S(=O)(=O)c3ccccc3)CC2)CC1,14,-8,i,0,-1,-1,10,5
COc1ccc(/C=C/C(=O)Nc2ccccc2C(F)(F)F)cc1OC,-18,-6,i,-5,-1,3,-17,-9
O=C(COc1ccc(Cl)cc1Cl)NC(=S)Nc1ccc(CN2CCOCC2)cc1,10,-14,i,-6,7,-7,-16,-10
O=C(c1ccccc1)n1c(=O)cc[nH]c1=O,-87,-2,i,·,-1,5,-20,·
CCCNC(=O)CSc1n[nH]c(=O)n1CCc1ccccc1,14,-7,i,12,3,5,-6,3
COc1ccc2c(c1OC)C(=O)N(c1ccc(OCc3ccccc3)cc1)C2=O,12,-1,i,-3,1,-4,-27,2
COC(=O)C1=C(C)N(C)C(C)=C(C(=O)OC)C1c1ccccc1C,·,-2,i,0,1,2,-9,-2
CC(=O)c1ccc(NC(=O)c2cnn3c(C(F)F)cc(C4CC4)nc23)cc1,-74,-16,i,·,2,1,-17,·
CCCc1ccc(OCc2ccc(C(=O)O)o2)c(OC)c1,·,·,i,-3,1,3,-35,0
CCS(=O)(=O)N1CCN(c2ccc([N+](=O)[O-])c(NC(C)c3ccccc3)c2)CC1 (configuration not stated),·,-7,i,-3,-2,-17,-9,-9
COC(=O)c1c(NC(=O)COc2ncnc3ccccc23)sc(C)c1C,-4,7,i,10,-2,-3,-12,5
CCCCN(CC)CCNC(=O)c1cc2c(=O)[nH]c3ccc(C)cc3c2s1,-40,5,i,6,8,-3,-7,14
CSc1nc2ccc(Nc3nc(N4CCOCC4)nc(N4CCOCC4)n3)cc2s1,11,·,·,-8,-3,-8,0,4
COc1cc(NC(=O)c2ccccc2[N+](=O)[O-])ccc1NC(=O)c1cc2ccccc2o1,2,-1,i,·,-2,-9,·,·
CC1=CC(c2ccc(Cl)cc2)n2ncnc2N1 (configuration not stated),3,-24,i,·,-1,3,6,·
CN1CCN(C(=O)c2cc([N+](=O)[O-])cc([N+](=O)[O-])c2)CC1,1,-12,i,2,5,2,9,1
O=C(CC(=O)c1ccccc1)Nc1cccnc1Cl,-52,-3,i,-2,-2,2,·,-6
CC1CCCCN1C(=S)NC(=O)c1ccccc1 (configuration not stated),·,-18,·,·,2,6,-13,·
Clc1cccc(Cl)c1CN1CCN(c2ncccn2)CC1,-2,-12,i,2,-2,-6,-29,-11
COCC(=O)Nc1ccc(F)cc1,9,-6,i,?,1,0,·,-5
O=C(CSc1nccn(-c2ccc(F)c(F)c2)c1=O)NC1CCCC1,-1,·,i,·,-4,0,·,·
COc1ccc(C(=O)Nc2ccc(-c3cn4ccsc4n3)cc2)cc1S(=O)(=O)N1CCOCC1,-49,-15,i,0,-6,-15,-12,-11
CCn1c(=O)cc(OCC(=O)Nc2ccc(OC)c(OC)c2)c2ccccc21,22,-2,i,16,5,6,·,-1
COC(=O)C1=C(C)N(C)C(=O)NC1c1c(O)ccc2ccccc12 (configuration not stated),-4,-6,i,-18,-2,-2,9,-10
OC[C@@H]1CN(Cc2ccc(-c3ccccc3)cc2)C[C@H](n2cnc3c(NCc4ccncc4)ncnc32)O1,35,·,·,·,0,-29,3,·
O=C(COc1ccccc1O)NCCN1CCOCC1,4,-9,i,-6,3,0,-11,-1
COc1cc(/C=N/NC(=O)c2ccccc2O)ccc1OC(=O)CC1SC(=O)NC1=O (configuration not stated),-9,-9,i,0,8,3,·,-11
O=c1[nH]c(/C=C2\C=Nc3ccccc32)c(O)n1Cc1ccccc1F,22,27,i,4,-19,-18,-5,-12
CC1Sc2ccc(S(=O)(=O)NCc3ccccc3)cc2NC1=O (configuration not stated),2,-15,i,2,-2,-4,-18,-10
Cc1nc(C(=O)O)cc([N+](=O)[O-])c1C,13,·,·,·,-1,-2,-31,·
O=C(Nc1ccc(S(=O)(=O)N2CCOCC2)cc1)c1cc(S(=O)(=O)N2CCOCC2)ccc1Cl,-3,-4,i,-8,2,-14,-4,-2
N=c1n(CC(=O)c2ccc(Br)s2)c2ccccc2n1Cc1ccccc1,-36,25,i,-11,1,-5,12,-1
C/C(CCc1ccc2c(c1)OCO2)=N\N=C(/N)SC1CC(=O)N(c2ccccc2F)C1=O (configuration not stated),·,-7,i,-8,0,-5,-18,-7
NC[C@H](Cc1ccccc1)NCCCCC1CCCCC1,0,1,·,·,2,10,0,·
Cc1cccc(Nc2nc(Cl)ncc2F)c1C,-9,0,i,2,-2,-6,-8,-5
O=C1CCC(C(=O)N2CCCCCCC2)CN1Cc1cccc(C(F)(F)F)c1 (configuration not stated),-22,-17,i,0,0,-3,17,-18
Cc1cc(NC(=O)CCC(=O)N(CC(=O)NCC2CCCO2)c2ccc(C)c(C)c2)no1 (configuration not stated),10,-4,i,1,2,1,8,9
Cc1ccc(S(=O)(=O)N(CC#N)CC#N)cc1,-15,1,i,0,-2,5,-22,-30
CCOC(=O)C1=C(CNCc2ccc(F)cc2)NC(=O)NC1c1cccc([N+](=O)[O-])c1 (configuration not stated),18,-4,i,19,-1,-6,-6,-2
O=C(Nc1cccc(S(=O)(=O)N2CCOCC2)c1)c1ccc(Cl)c([N+](=O)[O-])c1,8,-5,i,4,7,-4,-16,25
O=C1CCN(Cc2ccccc2)CCN1[C@H](CSc1ccccc1)c1ccccc1,-22,-10,i,-4,-3,2,-14,-4
C[C@@H](C(=O)NCCc1ccccc1F)N1C(=O)N2CCc3c([nH]c4ccccc34)[C@@]2(C)C1=O,·,-7,i,10,-10,-31,-9,-6
COC(=O)c1cccnc1NC(=S)NNC(=O)c1ccccc1,-98,-8,i,-13,-3,-2,-22,3
Cc1cccc(N2CCN(CC(=O)Nc3nccs3)CC2)c1C,17,2,i,-8,-1,-3,-6,-3
CC1(C(=O)Nc2ccc3c(c2)OCO3)CCN1C(=O)CC1CC1 (configuration not stated),-15,·,·,·,-1,3,-10,·
CC(C)CNC(=O)COC(=O)/C=C/c1ccccc1[N+](=O)[O-],-5,-21,i,-4,5,15,-1,-5
O=C(CC1(O)C(=O)N(C/C=C/c2ccccc2)c2ccccc21)c1ccccn1 (configuration not stated),-15,26,+,-4,0,7,0,-11
COC(=O)CN(c1ccc2c(c1)OCCO2)S(=O)(=O)c1ccccc1,·,1,i,-2,3,-1,-9,-9
COc1ccccc1NC(=O)NCCc1c[nH]c2ccccc12,-2,-11,i,2,-7,-4,·,4
O=C(NCCCn1ccnc1)c1ccc(S(=O)(=O)N2CCCCCC2)cc1,·,34,i,-2,1,-1,·,-8
Cc1ccc(CNC(=O)c2ccc(N3CCC4(CC3)CC(c3ccccc3)=NO4)c([N+](=O)[O-])c2)cc1,17,5,i,-5,7,-13,-4,-9
S=c1[nH]nc(-c2ccccc2)n1Cc1ccccc1,8,-6,i,11,-9,-1,-15,-2
CC1=C(C(=O)N2CCCCCC2)CC(CC(=O)NCCN2CCOCC2)C(=O)N1Cc1ccccc1 (configuration not stated),-18,·,·,·,-2,2,-10,·

# Among those listed so far, eight contain a nitro group on carbon.
SMILES,Env fusion inh,CSC inhib,Rce1 inhib,PABP polyA inh,MT1-MMP act inh,MT1-MMP act inh RFP,UUG fidelity,eIF4H FP inh
CCS(=O)(=O)N1CCN(c2ccc([N+](=O)[O-])c(NC(C)c3ccccc3)c2)CC1 (configuration not stated),·,-7,i,-3,-2,-17,-9,-9
COc1cc(NC(=O)c2ccccc2[N+](=O)[O-])ccc1NC(=O)c1cc2ccccc2o1,2,-1,i,·,-2,-9,·,·
CN1CCN(C(=O)c2cc([N+](=O)[O-])cc([N+](=O)[O-])c2)CC1,1,-12,i,2,5,2,9,1
Cc1nc(C(=O)O)cc([N+](=O)[O-])c1C,13,·,·,·,-1,-2,-31,·
CCOC(=O)C1=C(CNCc2ccc(F)cc2)NC(=O)NC1c1cccc([N+](=O)[O-])c1 (configuration not stated),18,-4,i,19,-1,-6,-6,-2
O=C(Nc1cccc(S(=O)(=O)N2CCOCC2)c1)c1ccc(Cl)c([N+](=O)[O-])c1,8,-5,i,4,7,-4,-16,25
CC(C)CNC(=O)COC(=O)/C=C/c1ccccc1[N+](=O)[O-],-5,-21,i,-4,5,15,-1,-5
Cc1ccc(CNC(=O)c2ccc(N3CCC4(CC3)CC(c3ccccc3)=NO4)c([N+](=O)[O-])c2)cc1,17,5,i,-5,7,-13,-4,-9

# Other compounds.
SMILES,Env fusion inh,CSC inhib,Rce1 inhib,PABP polyA inh,MT1-MMP act inh,MT1-MMP act inh RFP,UUG fidelity,eIF4H FP inh
COc1cc(/C=N/NC(N)=S)ccc1OCC(=O)Nc1ccc(C)c(C)c1,·,36,i,4,-6,-7,-20,0
O=C(NCc1ccccc1)C(c1ccc(F)cc1)N(C(=O)c1csnn1)C1CCCC1 (configuration not stated),36,3,i,7,-2,0,10,-3
CC(=O)NCC(=O)N1CCCC(C(=O)c2ccc(Oc3ccccc3)cc2)C1 (configuration not stated),5,-6,i,0,-1,-4,-7,-1
COc1ccc(S(=O)(=O)N2CCC(O)(c3cccnc3)CC2)cc1OC,7,-11,i,4,4,1,·,8

# Among those listed so far, 2 contain a COOH group.
SMILES,Env fusion inh,CSC inhib,Rce1 inhib,PABP polyA inh,MT1-MMP act inh,MT1-MMP act inh RFP,UUG fidelity,eIF4H FP inh
CCCc1ccc(OCc2ccc(C(=O)O)o2)c(OC)c1,·,·,i,-3,1,3,-35,0
Cc1nc(C(=O)O)cc([N+](=O)[O-])c1C,13,·,·,·,-1,-2,-31,·

# Assay outcomes: PubChem, several laboratories
